Rango complex inh – prevents formation of the Rango-importin beta complex | Q14974 | Rango CFP/YFP FRET sensor + importin beta, 45 min | Potency, µM (titrated, usually from 92.2 µM), without a hit: at the highest dose inhibition of complex formation | 340,000 compounds, 0.031% hits; active = rising FRET ratio curve, often small or poorly fitted; inconclusive = mostly compound fluorescence or quenching in the first reads; inactive = flat curves in all reads;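 further: potency means the concentration at half of the fitted maximal effect; 0% = DMSO wells and 100% = buffer wells lacking importin beta; nearly all actives have a fitted effect of over 15% in size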
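Inhibition scored from the CFP 486 nm/YFP 530 nm FRET ratio 45 min after adding 0.125 microM importin beta to 50 nM Rango biosensor preincubated 5 min with compound (room temperature, PBS with DTT, Tween-20, BSA). No-importin wells as positive control.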
GLA inh pH 4.5 – alpha-galactosidase A (human) inhibition, pH 4.5; P06280; purified enzyme, 4-MU-alpha-Gal fluorescence, pH 4.5; activity change, negative = inhibition, % at 105 µM; 230,000 tested, under 10 active; AID 1467; inconclusive = small, poorly fitted or top-dose-only inhibition, or a rising curve; inactive = flat fitted curve, though single readings scatter; no compound was filed as active;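 further: 0% = full activity with enzyme and -100% = basal without enzyme; dose as in the result columns while the protocol names 77 µM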
Target sequence (P06280 whole entry, looked up): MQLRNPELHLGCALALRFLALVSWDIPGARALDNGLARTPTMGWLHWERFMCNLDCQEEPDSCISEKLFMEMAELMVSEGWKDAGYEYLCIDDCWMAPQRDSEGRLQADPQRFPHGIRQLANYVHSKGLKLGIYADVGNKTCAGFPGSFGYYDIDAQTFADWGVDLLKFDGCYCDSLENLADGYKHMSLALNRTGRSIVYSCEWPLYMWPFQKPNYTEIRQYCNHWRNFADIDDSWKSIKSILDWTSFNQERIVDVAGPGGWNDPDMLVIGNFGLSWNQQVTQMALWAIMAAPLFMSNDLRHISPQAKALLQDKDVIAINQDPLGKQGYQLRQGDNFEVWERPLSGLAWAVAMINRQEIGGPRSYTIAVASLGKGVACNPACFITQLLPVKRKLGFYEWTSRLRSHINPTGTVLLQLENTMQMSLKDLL
Rango dissoc inh – inhibitors of RanGTP-induced Rango-importin beta complex dissociation; Potency, µM (series often up to 46.1 µM), without a hit: at the top dose activity change, negative = inhibition; O95149+P62826; AID 540253; 340,000 compounds, 0.071% hits; Biochemical FRET Rango-importin beta, RanGTP-induced dissociation; active means falling FRET ratio curve, often poorly fitted, with flat reads before Ran was added; inconclusive means other falling curves, or compound fluorescence or quenching; inactive means flat or rising ratio curve;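 further: potency means the concentration at half of the fitted maximal effect; % of control where 0% means no effect; nearly all actives have a fitted effect of over 45% in size; -100% = wells without RanGTP and RCC1; the record marks most hits as doubtful in a second field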
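Rango/importin beta premix (0.1/0.25 uM final), PBS + 1 mM DTT + 0.02% Tween-20 + 0.1% BSA; cpd 5 min RT; FRET pre-read; + RanGTP-RCC1 (0.6 uM Ran, 2 mM GTP, 0.2 uM RCC1); 45 min RT; FRET post-read, ex 430, em 486/530 nm.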
miR-21 FLuc – raises the signal of a miR-21 reporter; 340,000 tested, under 10 active; HeLa miR-21 FLuc reporter, luciferase, 48 h; AID 2288; Potency, µM (highest dose often 38.3 µM), without a hit: top-dose reporter change, positive = more light; active = well fitted rising curve with a large enough effect; inconclusive = small, poorly fitted or top-dose-only effect; inactive = no such curve, though single readings can be large or run the other way;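 further: % of control where 0% means no effect; miR-21 action dims this reporter so a rising signal means less miR-21 action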
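Using DMEM plus 10% FBS, HeLa miR-21-FLuc cells are incubated with test compounds (final up to about 40uM) for 48 hours; firefly luciferase signal is then imaged following reagent-mediated lysis.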
* hit, by the source's call; u = inconclusive; x = not tested or not shown.

Below each SMILES: Rango complex inh | GLA inh pH 4.5 | Rango dissoc inh | miR-21 FLuc
O=C(CCC(=O)c1cccs1)NCc1ccccc1Cl
    1.6% | x | 0% | x
COc1ccc(NC(=O)c2ccc3c(c2)C(=O)N(Cc2cccnc2)C3=O)cc1
    -0.3% | 1 | 6% | -6%
Cc1ccc(C(=O)Nc2nc(-c3ccccn3)cs2)cc1S(=O)(=O)N1CCOCC1
    -0.4% | x | 11% | x
OCC1(CCc2ccccc2)CCN(Cc2ccccc2Cl)CC1
    -0.3% | -13 | 1% | -4%
CCCCC1(c2ccc(F)cc2)NC(=O)N(CC(=O)N2CCN(C(=O)c3ccco3)CC2)C1=O (stereo not given)
    -2.3% | x | 0% | -2%
O=[N+]([O-])c1ccc2n[nH]nc2c1
    6.1% | -4 | 11% | -3%
Cc1ccc(NC(=O)Cc2nc(-c3c[nH]c(C(=O)N4CCCC4)c3)cs2)c(C)c1
    -0.7% | x | 3% | x
CC(C)CN(C(=O)COC(=O)c1c(Cl)ccc(Cl)c1Cl)C1CCS(=O)(=O)C1 (stereo not given)
    3.7% | 4 | -2% | -8%
COc1cc(C(C)=O)ccc1OCC(O)CN1CCN(c2ccccn2)CC1 (stereo not given)
    5.3% | x | -6% | -6%
O=c1c[n+]([O-])c2ccccc2n1OCc1ccccn1
    -3.0% | 8 | 3% | -2%
CCOc1ccc(-n2c(=O)c3c4c(sc3n(CC(=O)NCC3CCCO3)c2=O)CCCC4)cc1 (stereo not given)
    u | -6 | -2% | -2%
O=C(CCCCCC(=O)N(CCO)CCO)N(CCO)CCO
    1.5% | 12 | 10% | -9%
COc1ccc(N2C(=O)N(Cc3cccc(F)c3)c3ccccc3S2(=O)=O)cc1
    x | -13 | x | 3%
CC1=NN(C(=O)Cc2ccc([N+](=O)[O-])cc2)C(O)(c2ccccc2)C1 (stereo not given)
    4.0% | -1 | 14% | -1%
O=C1c2ccccc2-c2cccc(C(=O)N3CCN(C(=O)c4ccccc4)CC3)c21
    -1.2% | 2 | 7% | -2%
COC(=O)c1sc2ncccc2c1OCc1ccc(Cl)cc1Cl
    -0.6% | -14 | 1% | 1%
COC(=O)C1=C(C)N(CCCC(=O)O)C(=O)NC1c1ccc(C(F)(F)F)cc1 (stereo not given)
    -2.3% | x | 6% | 0%
O=C1CC(c2ccccc2)CC(=O)N1c1ccccc1
    -2.6% | -8 | -10% | -6%
COc1ccc(S(=O)(=O)Nc2cccnc2)c(C)c1C
    -1.8% | x | 4% | -2%
O=C(CC1Sc2ccccc2NC1=O)NNc1ccc(Cl)cc1Cl (stereo not given)
    1.6% | x | -5% | x
COC(=O)c1ccccc1NC(=O)C1CCCC1
    -0.8% | -1 | -12% | -10%
COc1ccc(CNc2nc(C)cc(C)c2C#N)cc1
    0.9% | x | -17% | -14%
COc1ccc(OCC(O)CN(C)C(=O)/C=C/c2cccc([N+](=O)[O-])c2)cc1 (stereo not given)
    -0.5% | 6 | 2% | -1%
Cc1cc(=O)n(C)c2ccccc12
    -0.2% | 3 | 0% | -2%
Cc1ccc(NS(=O)(=O)c2ccc3[nH]c(=O)[nH]c3c2)cc1
    0.1% | x | 1% | 0%
Nc1nc(SCCN2C(=O)c3ccccc3C2=O)n[nH]1
    4.1% | 1 | u | -3%
Fc1ccc(C(c2nnnn2C2CCCC2)N2CCN(Cc3ccccc3)CC2)cc1 (stereo not given)
    2.8% | -1 | -3% | -6%
CC(=O)c1ccccc1OC(=O)c1ccc([N+](=O)[O-])o1
    0.4% | 2 | -5% | 10%
COc1cc(C(=O)NCCOc2ccc(Cl)cc2)ccc1OCc1c(C)noc1C
    -0.1% | x | 6% | x
Oc1ccc(N=Cc2ccc(-c3cccs3)s2)cc1
    u | u | u | -18%
O=C(CCC(=O)Nc1cccc2ccccc12)N/N=C/c1ccco1
    2.5% | 2 | 8% | -4%
O=C(O)CCc1ccc(-c2ccc(F)cc2)n1CCC(=O)O
    0.4% | -7 | -7% | -3%
O=C(Nc1cc(C(=O)N2CCCC2)ccc1N1CCCC1)c1ccccc1F
    -0.3% | -10 | 4% | 12%
COc1ccc(Cl)cc1NC(=O)N1CCN(CCc2ccccc2)CC1
    2.3% | 5 | -15% | -14%
COC(=O)c1ccc(NCc2cc(O)ccc2O)cc1O
    18µM* | x | 8% | x
Cc1ccc(-c2cn(-c3ccc(SC(F)F)cc3)c3[n+]2CCC3)cc1
    1.1% | 4 | 4% | u
CC1=NN(c2ccccc2)C(=O)/C1=C/c1ccc[nH]1
    -1.8% | -8 | 1% | -60%
CCCC[C@H]1COCCS(=O)(=O)N1Cc1ccc(C)cc1
    -0.1% | x | -19% | 11%
CCc1nnc(NS(=O)(=O)c2ccc(NC(=O)c3ccccc3C)cc2)s1
    -6.8% | -1 | 18% | -9%
COc1ccccc1N(CC(O)CN1CCC(C)CC1)S(=O)(=O)c1ccccc1 (stereo not given)
    -2.0% | x | 11% | -7%
Cc1ccccc1CSc1ccc2nnc(-c3ccccn3)n2n1
    2.9% | -3 | 25% | 4%
COc1ccc(CCNc2ccc(C(CC(N)=O)NC(=O)c3cc(OC)ccc3OC)cc2[N+](=O)[O-])cc1 (stereo not given)
    -1.8% | x | -4% | 4%
O=C(CCNS(=O)(=O)c1ccc(Br)cc1)NC1CCC(O)CC1 (stereo not given)
    -2.6% | x | -2% | x
CC1CCCC(C)N1C(=O)COC(=O)Cc1ccc(Cl)cc1 (stereo not given)
    4.5% | x | -6% | 8%
Clc1ccc(CSc2nnc(CN3CCOCC3)n2-c2ccccc2)cc1Cl
    1.7% | -4 | -5% | 10%
CCCCCn1nc(C(=O)OCc2nnc(-c3ccccc3)o2)c2ccccc2c1=O
    -1.1% | x | -12% | x
COc1ccc(/C=N/NC(=O)c2cc[n+]([O-])cc2)cc1OC
    -2.3% | x | 1% | 5%
Cc1cc(C)c(NC(=O)COC(=O)C2CCN(c3ccc(C(F)(F)F)cn3)CC2)c(Cl)c1
    -1.3% | x | -3% | x
CCOc1ccc(C(=O)Nc2cc(C)ccn2)cc1
    5.2% | -2 | -1% | 23%
CCOc1ccc(C(=O)N2CCCC(c3nc(-c4cccs4)no3)C2)cc1 (stereo not given)
    -2.6% | 1 | 2% | -19%
O=C(COC(=O)c1ccc(S(=O)(=O)N2CCCC2)cc1)NCCc1ccc(F)cc1
    -0.9% | x | 11% | x
CC(C)n1c(N)c(C#N)c2ccc([N+](=O)[O-])cc2c1=O
    u | -5 | u | -10%
O=C(CN1C(=O)/C(=C\c2ccccc2Cl)Oc2ccccc21)NCc1cccnc1
    u | 8 | 23% | -35%
C#CCOCCOCCOCCNc1nc(N2CCN(C(=O)[C@H](Cc3cc4ccccc4[nH]3)n3cc([C@@H](N)C(C)CC)nn3)CC2)nc(N2CCN(C(=O)[C@H](Cc3cc4ccccc4[nH]3)n3cc([C@@H](N)Cc4ccc(O)cc4)nn3)CC2)n1 (stereo not given in full)
    x | 1 | x | 5%
CC(C)OC(=O)NC(C)(C)COC(=O)Nc1cccc(Cl)c1
    2.4% | -1 | 1% | -10%
COc1ccc(CCNC(=O)CSc2n[nH]c(N)n2)cc1
    -3.3% | x | 8% | -3%
CCCCOC(=O)/C=C\C(=O)OCCCC
    0.4% | -1 | -4% | 2%
Cc1ccc(-c2noc(CCC(=O)NC3CC3)n2)cc1
    -2.8% | x | 15% | -22%
CCOC(=O)N1CCC(NC(=O)c2cc3c(-c4ccc(Cl)cc4)nn(C)c3s2)CC1
    8.1% | 6 | 12% | -2%
CCOC(=O)C1=C(N)Oc2cc(C)n(CCc3ccc(OC)c(OC)c3)c(=O)c2C1c1cccnc1 (stereo not given)
    0.8% | -3 | -12% | -4%

The list goes on:
Below each SMILES: Rango complex inh | GLA inh pH 4.5 | Rango dissoc inh | miR-21 FLuc
CCN(CC)C(=O)CSc1nc2ccccc2c(=O)n1CC1CCCCC1
    4.7% | -6 | -1% | 19%
O=C(COC(=O)Cn1cnc2ccccc21)Nc1ccc(OC(F)F)cc1
    1.0% | x | -8% | x
COC(=O)c1cccc(Cn2nnc3ccccc3c2=O)c1
    0.4% | -1 | 14% | -17%
O=C(N1CCCCCC1)N1CCN(S(=O)(=O)N2CCCCC2)CC1
    -3.8% | 3 | -7% | -9%
CCCCOc1ccc(C(=S)N2CCC(C(N)=O)CC2)cc1
    0.0% | 5 | -2% | -9%
O=C(Nc1ccc(Br)cc1)c1cccc(N2C(=O)C3CCCCC3C2=O)c1 (stereo not given)
    1.5% | x | -4% | -4%
CN(CC(=O)Nc1c(Cl)cccc1Cl)C(=O)c1ccncc1
    -1.6% | x | 0% | 0%
CN(CC(=O)Nc1ccc(F)c(F)c1F)C(=O)CCN1C(=O)C2CCCCC2C1=O (stereo not given)
    0.0% | x | 36% | x
Cc1c(C)c2cc(Cl)c(O)c(CN(C)C)c2oc1=O
    u | u | u | -6%
CCOC(=O)c1ccccc1NC(=O)COc1ccccc1
    2.1% | -2 | 2% | -13%
Cc1ccc(S(=O)(=O)c2nc(S(C)(=O)=O)sc2N2CCC(C)CC2)cc1
    0.3% | x | 9% | 1%
CC(CN1CCOCC1)OC(=O)/C=C/c1ccccc1 (stereo not given)
    0.5% | 1 | -3% | -25%
Cc1cccc(OCC(=O)N/N=C/C=C/c2ccco2)c1
    -4.1% | -5 | u | 9%
COc1ccc2c(c1OC)C(=O)OC2n1c(O)c(N=NC(C)=O)c2ccccc21 (stereo not given)
    -1.6% | -8 | 7% | -5%
COc1ccc(C(CNC(=O)c2ccc(S(=O)(=O)N3CCCC3)cc2)N(C)C)cc1OC (stereo not given)
    1.6% | -7 | -16% | -8%

An excerpt from above, reduced to Rango dissoc inh.
Compound	Rango dissoc inh
O=C(N1CCCCCC1)N1CCN(S(=O)(=O)N2CCCCC2)CC1	-7%
COC(=O)c1cccc(Cn2nnc3ccccc3c2=O)c1	14%

More structures follow:
Below each SMILES: Rango complex inh | GLA inh pH 4.5 | Rango dissoc inh | miR-21 FLuc
Cc1nc2c(nc1C)C(=O)c1ccccc1C2=O
    -1.7% | x | 2% | x
COCCCN1C(=O)c2ccc(C(=O)OCC(=O)N(CCC#N)c3cc(C)cc(C)c3)cc2C1=O
    -5.9% | x | 14% | x
COc1ccc(C(=O)Nc2cc(C)nn2-c2ccc(C)cc2)cc1
    -0.1% | x | 2% | -3%
COc1ccc(OC)c(C(=O)Cn2c3[n+](c4ccc(C(F)(F)F)cc42)CCCCC3)c1
    -3.6% | 1 | -8% | u
CC1(C)Cc2nc3oc4c(N(CCO)Cc5ccccc5)ncnc4c3cc2CO1
    -0.2% | 4 | 11% | -7%
Cc1ccc(C(=O)C[n+]2cc(Br)cc(Br)c2)cc1[N+](=O)[O-]
    5.9% | -2 | -9% | -10%
Cc1cc(C(c2nnnn2Cc2ccccc2)N2CCOCC2)c(C)n1-c1ccc2c(c1)OCO2 (stereo not given)
    -1.7% | 0 | 1% | -1%
O=C(NCC1CCCO1)c1ccccc1-c1nc(-c2ccccc2)no1 (stereo not given)
    0.5% | -1 | 3% | -25%
O=C(c1ccc(Cl)cc1)N1CCCC(c2ccccc2)=N1
    1.8% | 2 | -9% | -12%

Three compounds already listed, arranged by molar mass, smallest number first:
Below each SMILES: Rango complex inh | GLA inh pH 4.5 | Rango dissoc inh | miR-21 FLuc
COc1ccc(C(=O)Nc2cc(C)nn2-c2ccc(C)cc2)cc1
    -0.1% | x | 2% | -3%
Cc1ccc(C(=O)C[n+]2cc(Br)cc(Br)c2)cc1[N+](=O)[O-]
    5.9% | -2 | -9% | -10%
COc1ccc(OC)c(C(=O)Cn2c3[n+](c4ccc(C(F)(F)F)cc42)CCCCC3)c1
    -3.6% | 1 | -8% | u

Assay outcomes: PubChem BioAssay, National Center for Advancing Translational Sciences (NCATS)

The list is partial; count on the stated rates, not on these rows.
